VACV mCherry inh = vaccinia inhibition (mCherry reporter) | Vaccinia virus mCherry reporter infection, fluorescence; about a quarter of the inactives have no number | Potency, µM (top dose mostly 36.5 µM), for the others: at the highest dose activity change, negative = inhibition, usual class: inhibitors | 310,000 tested, 0.63% active; active = well fitted inhibition curve with a large enough effect; inconclusive = small, poorly fitted or top-dose-only effect; inactive = no such curve, though single readings can be large or run the other way; tested in A549 cells; further: nearly all actives have a fitted effect of over 35% in size; inactives centre near -10
Vaccinia Venus = vaccinia inhibition (Venus reporter) | Vaccinia virus Venus reporter expression, fluorescence | Potency, µM (doses to about 36.5 µM), for inactives: at the highest dose activity change, negative = inhibition, usual class: inhibitors | 330,000 tested, 0.46% active; active means well fitted inhibition curve with a large enough effect; inconclusive means small, poorly fitted or top-dose-only effect; inactive means no such curve, though single readings can be large or run the other way; tested in A549 cells; further: nearly all actives have a fitted effect of over 30% in size; inactives centre near -10
Numbers without * were called inactive; i = inactive; ? = inconclusive; nt = no result given; [ ] = dose if it differs, or a comment. On the % scale 0 is the no-effect control and ±100 the full control effect; potency means the concentration at half of the fitted maximal effect.

Sample of the layout:
SMILES	VACV mCherry inh	Vaccinia Venus
N#Cc1ccccc1NC(=O)COC(=O)CN1C(=O)C2CCCCC2C1=O (stereo unspecified)	i	-4%
CCOC(=O)c1c(C)n(CC(O)CN2CCOCC2)c2cc(Br)c(OC)cc12 (stereo unspecified)	-21%	-15%
O=C(Cn1c(=O)oc2cc(S(=O)(=O)N3CCCC3)ccc21)N1CCN(c2ccccc2)CC1	-21%	-19%
CCOC(=O)C1(Cc2ccc(Cl)cc2)CCN(Cc2cnc(N)nc2)CC1	-7%	-13%
O=C(O)C1CC=CCC1C(=O)Nc1ccccc1C(=O)N1CCN(c2ccccc2)CC1 (stereo unspecified)	nt	-6%
C#CCNC(=O)C[C@@H]1C[C@@]2(C(=O)OCC)CCC=C2N(CCC2=CCCCC2)C1=O	-7%	-3%
Cc1noc(C)c1COc1ccc(C(=O)OCC(=O)N2CC3(C)CC2CC(C)(C)C3)cc1 (stereo unspecified)	-7%	-7%
CN(Cc1ccccc1)C(=O)COC(=O)CCC(=O)c1ccc(Cl)cc1	-1%	-10%
CCN(CC)CCCNC(=O)c1ccc(Cn2c(SCc3ccccc3)nc3cccnc32)cc1	-4%	0%
CCOc1ccc(NC(=O)CSc2ccc(-c3cccnc3)nn2)cc1	-9%	0%
Cc1cccc(N=c2c([N+](=O)[O-])nn(-c3ccc(Cl)cc3)n2O)c1	-18%	0%
O=C(CSc1nnc(CNc2cccc(C(F)(F)F)c2)n1Cc1ccco1)NCc1ccco1	-4%	-16%
Nc1nnc(SCC(=O)Nc2ccc(Cl)c(C(=O)O)c2)s1	-15%	-1%
O=C(NCc1ccc(-c2csnn2)cc1)C1CC1	-10%	-3%
COc1ccc(NC(=O)COC(=O)CNS(=O)(=O)c2ccc(F)c(F)c2F)cc1OC	i	-3%

This part in full, from the start:
SMILES	VACV mCherry inh	Vaccinia Venus
N#Cc1ccccc1NC(=O)COC(=O)CN1C(=O)C2CCCCC2C1=O (stereo unspecified)	i	-4%
CCOC(=O)c1c(C)n(CC(O)CN2CCOCC2)c2cc(Br)c(OC)cc12 (stereo unspecified)	-21%	-15%
O=C(Cn1c(=O)oc2cc(S(=O)(=O)N3CCCC3)ccc21)N1CCN(c2ccccc2)CC1	-21%	-19%
CCOC(=O)C1(Cc2ccc(Cl)cc2)CCN(Cc2cnc(N)nc2)CC1	-7%	-13%
O=C(O)C1CC=CCC1C(=O)Nc1ccccc1C(=O)N1CCN(c2ccccc2)CC1 (stereo unspecified)	nt	-6%
C#CCNC(=O)C[C@@H]1C[C@@]2(C(=O)OCC)CCC=C2N(CCC2=CCCCC2)C1=O	-7%	-3%
Cc1noc(C)c1COc1ccc(C(=O)OCC(=O)N2CC3(C)CC2CC(C)(C)C3)cc1 (stereo unspecified)	-7%	-7%
CN(Cc1ccccc1)C(=O)COC(=O)CCC(=O)c1ccc(Cl)cc1	-1%	-10%
CCN(CC)CCCNC(=O)c1ccc(Cn2c(SCc3ccccc3)nc3cccnc32)cc1	-4%	0%
CCOc1ccc(NC(=O)CSc2ccc(-c3cccnc3)nn2)cc1	-9%	0%
Cc1cccc(N=c2c([N+](=O)[O-])nn(-c3ccc(Cl)cc3)n2O)c1	-18%	0%
O=C(CSc1nnc(CNc2cccc(C(F)(F)F)c2)n1Cc1ccco1)NCc1ccco1	-4%	-16%
Nc1nnc(SCC(=O)Nc2ccc(Cl)c(C(=O)O)c2)s1	-15%	-1%
O=C(NCc1ccc(-c2csnn2)cc1)C1CC1	-10%	-3%
COc1ccc(NC(=O)COC(=O)CNS(=O)(=O)c2ccc(F)c(F)c2F)cc1OC	i	-3%
CCOc1ccc(S(=O)(=O)N2CCCC(C(=O)NCc3ccncc3)C2)cc1Cl (stereo unspecified)	-2%	-18%
CCOC(=O)CCNCc1ccc(OC)c(OC)c1	-12%	-7%
COc1ccc(S(=O)(=O)N2CCN(C(=O)N3CCOCC3)C2C)cc1 (stereo unspecified)	-15%	-9%
O=C(Cc1ccccc1)NC(Nc1cccc2ccccc12)C(Cl)(Cl)Cl (stereo unspecified)	-2%	2%
Cc1cccn2c(=O)c3cc(C(=O)NCCCN4CCCC4=O)n(C)c3nc12	i	-15%
Fc1ccc(CNc2nc(-c3cccnc3)nc3ccccc23)cc1	-9%	-5%
COc1ccc(NC(=O)c2cc3ccccc3cc2OC)cc1	-23%	?
COC(=O)C(C(=O)OC)c1ccccc1NS(=O)(=O)c1c(C)cc(C)cc1C	-15%	-9%
Cc1ccc(C(=O)NC2CCS(=O)(=O)C2)cc1S(=O)(=O)N1CCOCC1 (stereo unspecified)	-17%	-15%
O=C(CC1(O)C(=O)N(CCc2ccccc2)c2ccc(Br)cc21)c1ccccc1O (stereo unspecified)	-8%	-21%
COc1ccc(OC)c(C2C3CN(C(C)C)CC=C3C(C#N)=C(N)C2(C#N)C#N)c1 (stereo unspecified)	-9%	18%
COc1ccc(CN(Cc2ccccc2)C(=O)c2ccc(NC(C)=O)cc2)cc1COc1ccc(NC(C)=O)cc1	i	-20%
O=C(CC1NCCN(Cc2ccccc2)C1=O)Nc1ccc(Cl)cc1 (stereo unspecified)	i	-3%
CN1CCN(C(=O)CCc2nc3ccccc3n2-c2ccccc2)CC1	i	-16%
CCOC(=O)Cc1nnc(NC(=O)CSc2nnc3c4ccccc4n(C)c3n2)s1	i	-16%
Oc1ccc(C[C@H]2CNC(=S)N2CC2CCCN2C[C@H](Cc2ccccc2)N2C[C@H](Cc3ccc(O)cc3)N(CC3CCCCCC3)C2=S)cc1 (stereo partly specified)	?	?
CC1=NS(=O)(=O)NC(C)(C)C1	i	-5%
CC1CN(C(=O)COC(=O)c2ccc3ccccc3c2)CC(C)O1 (stereo unspecified)	-7%	-9%
CCn1c(CSc2nc(C)cc(C)n2)nnc1SCC(N)=O	i	-8%
O=C(CNC(=O)c1cccc(F)c1)OCC(=O)N1CCCc2ccccc21	0%	-13%
CCOC(=O)c1c(NC(=O)c2cc(-c3ccc(Br)cc3)on2)sc(C)c1C	-3%[7.34 µM]	-1%[7.34 µM]
O=C(NCc1ccco1)C(c1ccc(F)cc1)N(C(=O)Cc1cccs1)c1cccnc1 (stereo unspecified)	i	-8%
Cc1ccc(CN2CCN(/N=C/c3cccnc3)CC2)cc1	-14%	-6%
Cn1c(SCC(=O)NC2CCCC2)nc2c(c1=O)SCC2	-14%	5%
Cc1ccccc1/C=C1\Oc2ccccc2C1=O	i	0%

For convenience, 2 of the compounds above:
SMILES	VACV mCherry inh	Vaccinia Venus
Oc1ccc(C[C@H]2CNC(=S)N2CC2CCCN2C[C@H](Cc2ccccc2)N2C[C@H](Cc3ccc(O)cc3)N(CC3CCCCCC3)C2=S)cc1 (stereo partly specified)	?	?
CC1=NS(=O)(=O)NC(C)(C)C1	i	-5%

(listing goes on)
SMILES	VACV mCherry inh	Vaccinia Venus
Cc1cc(NC(=O)c2cc(-c3ccccn3)nc3c(Cl)cccc23)no1	i	-2%
O=C(c1ccc2c(=O)n3c(nc2c1)CCCCC3)N1CCN(c2ccc(Cl)cc2)CC1	-26%	?
Cc1ccc(N2C(=O)NC(=O)/C(=C\c3ccc(N4CCOCC4)cc3)C2=O)cc1	-12%	5%
Cc1ccc(C)c2[nH]c(=O)c(CN(Cc3cccs3)C(=S)NCc3ccco3)cc12	i	-3%
COCCNC(=O)C(OC(=O)c1ccco1)c1ccc(OC)cc1 (stereo unspecified)	i	-7%
Cc1onc(-c2ccccc2)c1C(=O)OCC(=O)NC(=O)c1ccccc1	-6%	-6%
Cc1ccc(/C=N/NC(=O)C2(O)c3ccccc3-c3ccccc32)o1	-18%	-3%
CCc1ccccc1Nc1sc(C(=O)c2ccccc2)c(N)c1S(=O)(=O)c1ccccc1	-22%	-16%
CCn1ncc(CN2CCC(n3nccc3NC(=O)c3ccccc3Cl)CC2)c1C	-4%	-16%
CCOC(=O)C1=C(O)/C(=C\c2ccc(CNC(=O)C(=O)Nc3ccccc3)o2)N=C1C	-13%	8%
Cc1cccn2c(=O)c3cc(S(=O)(=O)c4ccccc4)c(=N)n(Cc4ccco4)c3nc12	-19%	-17%
COCCNC(=S)N1CCc2cc(OC)c(OC)cc2C1COc1ccc(C(C)C)cc1 (stereo unspecified)	-23%	-24%
Cc1c(C#N)c2ccccc2n1CC(=O)N1CCCC1	-16%	-3%
CN(C(=O)COC(=O)c1ccc(Cl)c(S(=O)(=O)NCc2ccccc2)c1)C1CCS(=O)(=O)C1 (stereo unspecified)	-17%	1%
O=C(CCC(=O)OCC(=O)c1ccccc1)Nc1cccc(Cl)c1	-7%	5%
CCCCCc1c(-c2cccc(Br)c2)ncn1CCc1ccccc1OC	-12%	0%
CC(Cc1ccccc1)NC(=O)CCNNC(=O)c1ccncc1 (stereo unspecified)	i	-7%
CCOC(=O)C1C(=O)NC(c2ccccc2)=NC1c1ccc(O)c(OC)c1 (stereo unspecified)	-5%	-2%
CSc1ccc(CCNC(=O)CCc2nnc3ccc(N4CCOCC4)nn23)cc1	-21%	-12%
COc1ccc(C(=O)OCC(=O)NCCCc2ccccc2)cc1[N+](=O)[O-]	-4%	-1%
Cc1ccc(CCNC(=O)c2cc(S(=O)(=O)N3CCCC3)cn2C)cc1	i	-3%
COc1cc(NC(=O)c2cc(-c3cccnc3)nc3ccc(Br)cc23)cc(OC)c1	-2%	-12%
O=C1NC[C@H](CCCCN2C[C@H](Cc3ccc(O)cc3)N(CCc3ccccc3)C(=O)C2=O)N(CCC2CCCCC2)C1=O	-9%	-2%
Cn1c(NNC(=O)CCC2CCCCC2)cc(=O)n(C)c1=O	i	-9%
O=C(OCC1OC(n2ccc(=O)[nH]c2=O)C(O)C1OC(=O)c1ccccc1)c1ccccc1 (stereo unspecified)	-3%	-5%
Cc1ccnc2nc(C(=O)NCCc3ccc(F)cc3)nn12	nt	-20%
Cc1cc(C)cc(OCC(=O)Nc2ccccc2C(=O)NCc2ccco2)c1	-27%	?
O=C(CN1C(=O)C2CCCCN2c2ccc(C(=O)N3CCCC3)cc21)NCc1ccc(F)cc1 (stereo unspecified)	0%	-14%
CCOCCCNS(=O)(=O)c1ccc(NC(=O)c2ccc([N+](=O)[O-])cc2Cl)cc1	?	-22%
O=C(NCCN1C(=O)S/C(=C\c2cccnc2)C1=O)C1=NN(c2ccccc2)C(=O)CC1	-14%	-4%
O=C(NNC(=O)c1ccc([N+](=O)[O-])cc1C(=O)O)c1ccncc1	-16%	-14%
CCc1cccc(NS(=O)(=O)c2ccc3c(c2)N(C)CCO3)c1	-21%[7.34 µM]	-17%[7.34 µM]
Cc1nc2nc[nH]n2c(=O)c1CCOC(=O)c1c(F)cccc1F	-6%	1%
COc1ccccc1NC(=O)CSc1nnc(Cc2cccs2)n1C	-14%	-9%
OCc1ccccc1SSc1ccccc1CO	i[7.34 µM]	-2%[7.34 µM]
Cc1ccccc1C(=O)N1CCC(C(=O)N(C)CC(=O)Nc2cccc(F)c2)CC1	i	-4%
O=C(O)CCCn1cc(NC(=O)c2cccc(F)c2)cn1	i	2%
Cc1sc(N2C(=O)C3C4C=CC(C4)C3C2=O)c(C#N)c1C (stereo unspecified)	-8%	-6%
Nn1c(Cc2cccc3ccccc23)nnc1SCC(=O)NCC1CCCO1 (stereo unspecified)	-4%	-19%
CCOc1ccccc1NC(=S)NC(=O)C1CCCCC1	-8%	-5%
O=S(=O)(c1ccc(N2CCN(CCO)CC2)nc1)N1CCCCC1	nt	?
CCc1ccc(N(CC(=O)Nc2ccc(NC(C)=O)cc2)S(=O)(=O)c2ccccc2)cc1	-26%	-27%
O=C(CO/N=C/c1ccc(OC(F)F)cc1)NCc1ccco1	i	-13%
Cc1[nH]c2ccc(-c3nnc(SCC(=O)NCc4ccco4)n3Cc3ccccc3)cc2c1C	nt	?
Cn1c(NCCOc2ccccc2)nc2cc(-c3ccc(F)cc3)sc2c1=O	-29%	-20%
CCCCCCN1C[C@@H](n2cc(-c3ccc(F)cc3)nn2)[C@H](O)C[C@@H]1c1ccc(OC)cc1	-18%	?
COc1cc(Cl)ccc1OCc1cc(C(=O)N2CC[C@@H]3CCCC[C@H]3C2)no1	-5%	-13%
CC(C)(C)c1ccc(S(=O)(=O)NCC(=O)N2CCCC2)cc1	i	-8%
CCOC(=O)CN(C(=O)Cn1nnc(-c2ccc(C)cc2)n1)C(CC)C(=O)NC1CCCC1 (stereo unspecified)	-2%	-18%
CCCCC(CCC(=O)O)(C(=O)OCC)c1csc(N)n1 (stereo unspecified)	nt	7%

(further entries)
SMILES	VACV mCherry inh	Vaccinia Venus
O=C(NCC1CCCO1)c1cc(-c2ccncc2)nc2ccc(S(=O)(=O)N3CCOCC3)cc12 (stereo unspecified)	nt	-11%
Cc1ccc(S(=O)(=O)NN2C(=O)/C(=C/c3cccnc3)SC2=S)cc1	-25%	1%
Cc1ccc(-c2cc(C(F)(F)F)c(C#N)c(SCC(=O)Nc3ccccc3)n2)cc1	-7%	-5%
CCOc1ccccc1C1C(C(N)=O)=C(C)Nc2nc(CCCO)nn21 (stereo unspecified)	-8%	-7%
Cc1ccc(Cn2ccc(NC(=O)c3nn(C)cc3Cl)n2)cc1	nt	-16%
C/C(=N\O)C1CC(CC(=O)O)C1(C)C (stereo unspecified)	i	-2%
Cc1cc(C)c(O)c(-c2n[nH]c3c2C(c2cccc(O)c2)N(Cc2ccco2)C3=O)c1 (stereo unspecified)	10µM*	?
COc1ccc2c(c1)c(/C=N/Nc1nc3ccccc3[nH]1)c(C)n2C	?	-22%
COc1ccc(-c2cncc3nccn23)cc1OC	1%	-9%
Cc1ccc(-c2nc(CS(=O)CC(=O)NCCCN3CCN(Cc4ccccc4)CC3)c(C)o2)cc1 (stereo unspecified)	?	?
O=C(CSc1nccn1Cc1ccc(Cl)cc1)NC1CCCC1	i	-14%
